Assay outcomes: PubChem BioAssay, ICCB-Longwood Screening Facility, Harvard Medical School
RVFV N-RNA inh: blocks Rift Valley Fever Virus nucleoprotein binding to RNA; RVFV N-RNA binding, fluorescence polarization; hits give low values; P21700; hit rate 0.1% among 20,000; AID 651828; % bound, % (test concentration not listed);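 active = between 0 and 58% in either replicate with normal brightness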;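 note: 100 nL library stock added to about 12 µL; 100% = protein and probe without compound and 0% = probe alone; numbers are from one replicate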
Target sequence (P21700 whole entry, looked up): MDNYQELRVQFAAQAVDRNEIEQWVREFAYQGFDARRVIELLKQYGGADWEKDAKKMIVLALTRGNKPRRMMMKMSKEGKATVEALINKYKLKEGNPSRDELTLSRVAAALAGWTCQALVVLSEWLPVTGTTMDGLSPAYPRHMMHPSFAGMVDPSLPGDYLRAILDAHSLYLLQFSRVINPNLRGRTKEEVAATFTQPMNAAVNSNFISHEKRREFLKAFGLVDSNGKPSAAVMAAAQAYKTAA
* marks the source's active call; other numbers are inactive results; & = joins results of further samples. Not all compounds are listed. The share of hits here may be higher or lower than overall.

CCCC(CCC)C(=O)Nc1cc(C)c2c(=O)oc3ccccc3c2n1 was read as RVFV N-RNA inh 97.
For O=C(Nc1ccc(-c2cn3cccnc3n2)cc1)c1ccco1 the results were RVFV N-RNA inh 89.
Screening O=C(Nc1nnc(C2=COCCO2)o1)c1ccc(Cl)cc1 returned RVFV N-RNA inh 94.
Screening Cc1cc2c(C(C)C)c(O)c(O)c(C=O)c2c(O)c1-c1c(C)cc2c(C(C)C)c(O)c(O)c(C=O)c2c1O returned RVFV N-RNA inh 77.
Screening C=CCSc1nnc(NC(=O)c2ccc(S(=O)(=O)N3CCCCC3)cc2)s1 returned RVFV N-RNA inh 98.
CC(=O)SC1CC2=CC(=O)CC[C@]2(C)C2CC[C@@]3(C)C(CC[C@@]34CCC(=O)O4)C12 (some centres not stated) was read as RVFV N-RNA inh 95.
`CC1CNc2c(cccc2S(=O)(=O)N[C@@H](CCCN=C(N)N)C(=O)N2CC[C@@H](C)C[C@@H]2C(=O)O)C1` (some centres not stated) gave RVFV N-RNA inh 97&93.
COc1cc(NC(=O)CS)cc(OC)c1 was read as RVFV N-RNA inh 100.
CS(=O)(=O)Nc1ccc(-c2cn3ccccc3n2)cc1 was read as RVFV N-RNA inh 96.
Screening O=C(Cn1cc(S(=O)(=O)CC(=O)N2CCc3ccccc32)c2ccccc21)N1CCCC1 returned RVFV N-RNA inh 96.
Screening O=C(NCC(c1cccs1)S(=O)(=O)c1ccc(Cl)cc1)C1CC1 (configuration not stated) returned RVFV N-RNA inh 96.
For Nc1nc(-c2cc3c(cc2Br)OCCO3)cs1 the results were RVFV N-RNA inh 104.
For CCn1c(SCc2cccc(C)c2)nnc1C(C)NC(=O)c1ccccc1 (configuration not stated) the results were RVFV N-RNA inh 98.
`O=C(CSc1nccc(=O)[nH]1)Nc1ccccc1Br` gave RVFV N-RNA inh 92.
Screening O=C(CSC1=N/C(=C/c2ccco2)C(=O)N1c1ccccc1)Nc1nc2ccccc2s1 returned RVFV N-RNA inh 98.
Screening COc1ccc(S(=O)(=O)N2CN(Cc3ccccc3)c3nc4ccccc4nc32)cc1 returned RVFV N-RNA inh 88.
`CN(CC(=O)N1CCCC1)S(=O)(=O)c1ccc(F)cc1` gave RVFV N-RNA inh 101.
`O[C@H]1[C@H](O)[C@@H](O)[C@@H]2O[C@@H]2[C@@H]1O` gave RVFV N-RNA inh 102.
For COc1ccc(NC(=O)C(C)Sc2ccccc2)cc1 (configuration not stated) the results were RVFV N-RNA inh 99.
Cc1cc(S(=O)(=O)NC2CCCCC2)ccc1OCC(=O)NCc1cccnc1 was read as RVFV N-RNA inh 109.
For O=C(c1cnc2sccn2c1=O)N1CCN(c2ccccc2)CC1 the results were RVFV N-RNA inh 100.
Screening OCCn1ncc2c(SC3CCCCC3)ncnc21 returned RVFV N-RNA inh 102.
For CCc1ccc(N2CC(c3nc4ccccc4[nH]3)CC2=O)cc1 (configuration not stated) the results were RVFV N-RNA inh 91.
CCN(CC)C(=O)c1ccc(NC(=O)c2ccccc2)cc1 was read as RVFV N-RNA inh 103.
For CSc1nn(-c2ccccc2)cc1-c1noc(-c2ccc(C(F)(F)F)cc2)n1 the results were RVFV N-RNA inh 94.
Screening CCOC(=O)N1CCN=C1SCc1cc(C)ccc1C returned RVFV N-RNA inh 92.
O=C(Nc1ccc2[nH]c(=O)[nH]c2c1)c1ccccc1Br was read as RVFV N-RNA inh 106.
CC(C)(C)NS(=O)(=O)c1ccc(N2C(=O)CCC2=O)cc1 was read as RVFV N-RNA inh 98.
`CCCOC(=O)c1c(-c2ccccc2)nc(CC)c(C(=O)SCC)c1CCC` gave RVFV N-RNA inh 95.
For Cc1ccc(S(=O)(=O)NC2CCCCC2n2cc(-c3ccccc3)nn2)cc1 (configuration not stated) the results were RVFV N-RNA inh 106.
`CC(=O)c1ccc(N2CCOCC2)cc1O` gave RVFV N-RNA inh 105.
C=CCc1cccc2cc(C(=O)N3CCCCC3)c(=O)oc12 was read as RVFV N-RNA inh 92.
Screening CCOC(=O)c1sc(SCc2cccc(Cl)c2)c(S(=O)(=O)C(C)C)c1-n1cccc1 returned RVFV N-RNA inh 95.
`COC(=O)Nc1nc2c(C)cccc2s1` gave RVFV N-RNA inh 96.
`Cc1oc(C(C)(C)C)cc1-c1cc(NS(=O)(=O)c2ccc(Cl)cc2)n[nH]1` gave RVFV N-RNA inh 90.
Cc1c(C(=O)Nc2ccc(S(=O)(=O)N3CCCCCC3)cc2)oc2ccc(F)cc12 was read as RVFV N-RNA inh 95.
Screening CN(C)C(=O)CSc1nnc(-c2ccccc2O)n1Cc1ccccc1 returned RVFV N-RNA inh 93.
For COc1ccc(-n2nc(C)c3sc(C)nc3c2=O)cc1 the results were RVFV N-RNA inh 97.
Screening CCN1CCN(C(=O)Nc2ccc(Cl)c(Cl)c2)CC1 returned RVFV N-RNA inh 92.
COC(=O)c1ccc2c(c1)sc(=NC(=O)c1ccc(S(=O)(=O)N3CCCC3)cc1)n2C was read as RVFV N-RNA inh 95.
For CCNC(=O)/C=C/c1ccc(C(C)(C)C)cc1 the results were RVFV N-RNA inh 94.
For Brc1ccc2nc[nH]c2c1 the results were RVFV N-RNA inh 96.
Screening O=C(COCC(=O)Nc1nc(-c2ccncc2)cs1)Nc1nc(-c2ccncc2)cs1 returned RVFV N-RNA inh 94.
COC(=O)/C=C/C(=O)OC was read as RVFV N-RNA inh 93.
For CNC(=O)[C@H]1O[C@@H](n2cnc3c(NCc4ccc(N)cc4)ncnc32)C(O)[C@H]1O (some centres not stated) the results were RVFV N-RNA inh 99.
For CCn1c(=O)[nH]c2cc(C(=O)N3CCN(c4ccccc4)CC3)ccc2c1=O the results were RVFV N-RNA inh 93.
For O=c1c2cnn(CCO)c2ncn1C/C=C/c1ccccc1 the results were RVFV N-RNA inh 101.
`COC(=O)c1ccc(Cn2cnc3c(nnn3-c3cc(C)cc(C)c3)c2=O)o1` gave RVFV N-RNA inh 96.
For Cc1ccccc1NC(=O)C1C2C3CCC(C3)C12 (configuration not stated) the results were RVFV N-RNA inh 97.
For CC(C)=C1C(=O)NN(c2ccccc2)C1=O the results were RVFV N-RNA inh 104.
`Cc1cc2oc(=O)cc(-c3cc4ccccc4o3)c2cc1OCC(N)=O` gave RVFV N-RNA inh 91.
`COC(=O)c1sccc1N/N=C(\C#N)S(=O)(=O)c1cccs1` gave RVFV N-RNA inh 96.
`COCCn1c(=NC(=O)c2ccccc2)sc2cc(OC)ccc21` gave RVFV N-RNA inh 93.
For CS(=O)(=O)N1CCCC(C(=O)NCc2cccnc2)C1 (configuration not stated) the results were RVFV N-RNA inh 98.
`CCN(CC)S(=O)(=O)c1c(C)nn(S(=O)(=O)c2ccccc2)c1C` gave RVFV N-RNA inh 90.
`CCOc1cnc(C(=O)NN=C(N)N)o1` gave RVFV N-RNA inh 93.
For COCc1[nH]nc(N)c1-c1ccccc1 the results were RVFV N-RNA inh 97.
For CCOC(=O)c1cnc(C(F)(F)F)nc1NNC(=O)c1ccccc1 the results were RVFV N-RNA inh 97.
CC1CCCN(Cc2cc(Cl)cc(Cl)c2O)C1 (configuration not stated) was read as RVFV N-RNA inh 94.
Screening Cc1ccc(C(=O)/C=C/Nc2ccc(F)c(Cl)c2)o1 returned RVFV N-RNA inh 90.

Random excerpt: 2 records from the list.
For O=c1c2cnn(CCO)c2ncn1C/C=C/c1ccccc1 the results were RVFV N-RNA inh 101.
For CCOC(=O)c1cnc(C(F)(F)F)nc1NNC(=O)c1ccccc1 the results were RVFV N-RNA inh 97.

Among those listed so far, these have a thiophene ring, fused or not.
Screening O=C(NCC(c1cccs1)S(=O)(=O)c1ccc(Cl)cc1)C1CC1 (configuration not stated) returned RVFV N-RNA inh 96.
Screening CCOC(=O)c1sc(SCc2cccc(Cl)c2)c(S(=O)(=O)C(C)C)c1-n1cccc1 returned RVFV N-RNA inh 95.
`COC(=O)c1sccc1N/N=C(\C#N)S(=O)(=O)c1cccs1` gave RVFV N-RNA inh 96.

Continuation:
For Cn1c(NCc2c(O)ccc3ccccc23)nc2ccccc21 the results were RVFV N-RNA inh 93.
Screening COc1ccc(N(C(=O)c2ccco2)S(=O)(=O)c2ccccc2)cc1 returned RVFV N-RNA inh 98.
For O=c1c2ccccc2nc(SCc2nnc(-c3ccccc3)o2)n1CCc1ccccc1 the results were RVFV N-RNA inh 95.
Screening CCN(CC)C(=S)Nc1ccc(Cl)c(Cl)c1 returned RVFV N-RNA inh 94.
Screening CN1C[C@H](C(=O)N[C@]2(C)O[C@@]3(O)[C@@H]4CCCN4C(=O)[C@H](Cc4ccccc4)N3C2=O)CC2c3cccc4[nH]cc(c34)C[C@H]21 (some centres not stated) returned RVFV N-RNA inh 100.
`Cc1cc(NNC(=O)c2ccc(Cl)cc2)nc2c1c(C)nn2C` gave RVFV N-RNA inh 99.
COc1ccc(CC(C)Nc2ccc3c(c2)OCO3)cc1 (configuration not stated) was read as RVFV N-RNA inh 91.
CC(C(=O)Nc1ccc(Br)c(Cl)c1)N1C(=O)C2C3C=CC(C3)C2C1=O (configuration not stated) was read as RVFV N-RNA inh 91.
`CCc1ccc(NC(=O)C(CC)CC)cc1` gave RVFV N-RNA inh 98.
`COc1cc2ncnc(Nc3ccc(NC(=O)c4ccccc4)cc3)c2cc1OC` gave RVFV N-RNA inh 110.
`O=C(Nc1ccccc1)O/N=C1\CCc2ccccc21` gave RVFV N-RNA inh 98.
`Cc1noc(C)c1NC(=O)Nc1cccc(-n2cccc2)c1` gave RVFV N-RNA inh 96.
For c1ccc2c(CN3CCSCC3)c[nH]c2c1 the results were RVFV N-RNA inh 106.
For Cc1cc(NC(C)c2ccccc2)cc(=O)n1Cc1ccco1 (configuration not stated) the results were RVFV N-RNA inh 96.
CCSC1=NCCN1C(=O)c1ccc(S(=O)(=O)N(C)C)cc1 was read as RVFV N-RNA inh 95.
Screening CC(=O)[C@H]1CC[C@H]2[C@@H]3CC[C@H]4C[C@](C)(O)CC[C@]4(C)[C@H]3CC[C@]12C returned RVFV N-RNA inh 99.
Screening O=C(NC(=S)NNc1ncccc1-n1cccc1)c1ccccc1 returned RVFV N-RNA inh 93.
`COC(=O)c1sccc1-c1ccc(/C(C)=N/NC(N)=O)o1` gave RVFV N-RNA inh 92.
Cc1ccc(Oc2ccc3c(c2)C(=O)N(CC2CCCO2)C3=O)cc1 (configuration not stated) was read as RVFV N-RNA inh 90.
`O=C(Oc1c(-c2ccco2)oc2ccccc2c1=O)c1cccs1` gave RVFV N-RNA inh 97.

Four compounds already listed, ordered by molecular weight, rising:
For c1ccc2c(CN3CCSCC3)c[nH]c2c1 the results were RVFV N-RNA inh 106.
Screening COc1ccc(N(C(=O)c2ccco2)S(=O)(=O)c2ccccc2)cc1 returned RVFV N-RNA inh 98.
`COc1cc2ncnc(Nc3ccc(NC(=O)c4ccccc4)cc3)c2cc1OC` gave RVFV N-RNA inh 110.
Screening CN1C[C@H](C(=O)N[C@]2(C)O[C@@]3(O)[C@@H]4CCCN4C(=O)[C@H](Cc4ccccc4)N3C2=O)CC2c3cccc4[nH]cc(c34)C[C@H]21 (some centres not stated) returned RVFV N-RNA inh 100.

New compounds follow
`CCC(=O)Nc1c2c(nn1-c1ccc(C)cc1C)CSC2` gave RVFV N-RNA inh 96.
Screening CN(C)/C=C/C=C1\CCCC1=O returned RVFV N-RNA inh 88.
For O=c1c2c3c(sc2n2cnnc2n1CCc1ccccc1)CCCC3 the results were RVFV N-RNA inh 94.
`COc1cc(CN2CC(C)CC(C)C2)cc(I)c1O` (configuration not stated) gave RVFV N-RNA inh 105.
O=C(N/N=C/C=C/c1ccccc1)c1ccccc1O was read as RVFV N-RNA inh 91.
`C[C@H](N)Cc1cccc(C(F)(F)F)c1` gave RVFV N-RNA inh 93.
For CC(=O)NC(Nc1cccc(F)c1)(C(F)(F)F)C(F)(F)F the results were RVFV N-RNA inh 99.
COc1ccc(N/C=C(/C#N)c2nc(-c3cccs3)cs2)cc1 was read as RVFV N-RNA inh 100.
Screening CCCC(C)C(=O)N1CCC(Cc2ccccc2)CC1 (configuration not stated) returned RVFV N-RNA inh 88.
CC(C)(O)C(Cl)(Cl)Cl was read as RVFV N-RNA inh 105.
CC(C)(C)NC(=O)N1CCC2(CC1)CC(=O)c1ccccc1O2 was read as RVFV N-RNA inh 95.
`O=C(Cc1ccccc1)Nc1cccc(N2C(=O)C3CC=CCC3C2=O)c1` (configuration not stated) gave RVFV N-RNA inh 101.
For Cn1c(/C(C#N)=N/OC(=O)c2ccccc2)nc2ccccc21 the results were RVFV N-RNA inh 99.
`CC(C)C1CCC(C(=O)N[C@H](Cc2ccccc2)C(=O)O)CC1` (some centres not stated) gave RVFV N-RNA inh 106&94.
Screening O=C(NC1CC(=O)N(c2ccccc2)C1)C1CC1 (configuration not stated) returned RVFV N-RNA inh 96.
Nc1ncnc2c1nc(Br)n2C1OC2COP(=O)(O)O[C@@H]2C1O (some centres not stated) was read as RVFV N-RNA inh 95.
`O=C(CSc1nnc(CNC(=O)c2cccs2)o1)NCC1CCCO1` (configuration not stated) gave RVFV N-RNA inh 91.
COc1cccc(NC(=O)CCS(=O)(=O)c2ccccc2)c1 was read as RVFV N-RNA inh 96.
O=C1CCc2ccccc2CN1 was read as RVFV N-RNA inh 91.
Screening COc1ccc(CNc2nc(SC)n[nH]2)cc1OC returned RVFV N-RNA inh 94.
For CCOC(=O)c1c2n(c3ccc(O)cc13)CCCCC2 the results were RVFV N-RNA inh 101.

Structures listed so far that contain a CF3 group (four):
For CSc1nn(-c2ccccc2)cc1-c1noc(-c2ccc(C(F)(F)F)cc2)n1 the results were RVFV N-RNA inh 94.
For CCOC(=O)c1cnc(C(F)(F)F)nc1NNC(=O)c1ccccc1 the results were RVFV N-RNA inh 97.
`C[C@H](N)Cc1cccc(C(F)(F)F)c1` gave RVFV N-RNA inh 93.
For CC(=O)NC(Nc1cccc(F)c1)(C(F)(F)F)C(F)(F)F the results were RVFV N-RNA inh 99.
